# LT uptake inh: inhibitors of anthrax lethal toxin internalization. Cells, anthrax lethal toxin internalization, FRET ratio (460/530). Potency, µM (series often up to 40 µM), without a hit: top-dose activity change, negative = inhibition, hits mostly inhibitors. 70,000 compounds, 0.67% hits. AID 912; active = well fitted falling ratio curve with the 530 nm signal flat; inconclusive = other ratio curves, or a change in one channel alone; inactive = flat curves in the ratio and both channels; the % refers to the ratio; also: % is scaled to controls: 0 for no effect and ±100 for the full control effect; nearly all actives have a fitted effect of over 50% in size; tested in ME-180 cells; beta-lactamase reporter
# SmPrx2 inh: inhibitors of Schistosoma mansoni peroxiredoxin 2; S. mansoni Prx2 activity coupled to TGR/GSH (TGR is thioredoxin glutathione reductase), NADPH fluorescence loss, qHTS; some inactives read as strong as hits; Potency, µM; 65,000 compounds, 0.07% hits; active means full or partial inhibition curve with a strong effect at the top dose; inconclusive means weaker partial or single-point curve; inactive means no accepted curve; also: series up to 57 µM; many of its hits are not listed in these tables
#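 Enzyme mix: 100 uM NADPH, 25 nM TGR, 700 uM GSH, 50 nM Prx2 in 100 mM phosphate pH 7.4, 10 mM EDTA, 0.01% Tween-20. 15 min RT with compound; NADPH/GSH added, H2O2 starts reaction; NADPH fluorescence read 8 min.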
# Numbers without * were called inactive; ? = inconclusive; nt = no result given; & = joins results of further samples; [ ] = dose if it differs, or a comment. Potency is read from the fitted curve at half-maximal effect.
Molecule | LT uptake inh | SmPrx2 inh
Cc1cccc(C(=O)O)c1NC(=O)c1ccc(F)cc1 | nt | >57
Nc1ccc2c(c1)CCC2=O | -1.8% | >57
Cc1nc2ccccc2c2nc3ccccc3n12 | -13.7% | nt
COC(=O)C1CCN(C(=O)c2sc3nc(-c4ccccc4)cn3c2C)CC1 | 1.4% | nt
O=C(Nc1ccc(F)cc1)N1CCN(C/C=C/c2ccccc2)CC1 | -3.5% | >57
COc1cc(OC)cc(-c2nc3cc(C)ccc3o2)c1 | -26.0% | nt
CN1CCC(OC(=O)COc2ccc(C(C)(C)C)cc2)CC1 | -3.8% | >57
CN(C)c1cccc(C(=O)OCC(=O)NCc2ccco2)c1 | 12.7% | >57
O=C(NCc1ccco1)Nc1ccccc1Cl | -8.5% | >57
COc1ccc(NC(C)=O)c2nc(C)c(C)nc12 | -6.8% | nt
CC12C=C(/C=C/c3ccc(Br)cc3)C(C)(C1)C(c1ccc(Br)cc1)CC2=O (stereo not given) | -12.2%[8 µM] | nt
COCCn1cc(C(=O)NCCCN2CCC(C)CC2)c2c3ccccc3n(C)c2c1=O | 1.2% | >57
CCc1nnc2c3cnn(-c4ccc(C)c(C)c4)c3ncn12 | nt | >57
NCCCCCc1nnc(SCc2cccc(Cl)c2)o1 | -8.8% | >57
COc1ccc(S(=O)(=O)NCC(c2cccnc2)N2CCN(C)CC2)cc1C (stereo not given) | 14.5% | >57
CC(C(=O)Nc1cccnc1)N1C(=O)c2ccccc2C1=O (stereo not given) | 14.3% | >57
Cc1ccc(S(=O)(=O)N2CCN(C(=O)C3COc4ccccc4O3)CC2)cc1C (stereo not given) | -1.1% | >57
O=C(c1ccc(Br)o1)N1CCN(Cc2ccc3c(c2)OCO3)CC1 | -20.0% | >57
CS(=O)(=O)N1CCN(c2ccccc2NC(=O)CSc2ccc(Cl)cc2)CC1 | -18.3% | >57
CCOc1ccccc1NC(=O)CN(c1cc(C)cc(C)c1)S(=O)(=O)c1c(C)noc1C | -3.3% | >57
CC(=O)OC[C@H]1O[C@@H](n2ccc(=O)[nH]c2=S)C(OC(C)=O)C1OC(C)=O (stereo not given in full) | 7.3% | >57
C[C@H](N)[C@@H](O)c1ccccc1 | -1.1%[3.58 µM] | >57
O=C(OCCNc1ncc(C(F)(F)F)cc1Cl)c1ccc(S(=O)(=O)N2CCOCC2)cc1 | -23.1% | >57
O=C(CCn1cnc2ccccc2c1=O)Nc1nc2c(s1)CCCC2 | -10.6% | >57
CCOC(=O)N1CCC(N(CCOC)C(=O)Nc2ccc(Cl)cc2)CC1 | ? | >57
CC#C[C@@]1(O)CC[C@@H]2[C@@H]3CCC4=CC(=O)CCC4=C3[C@@H](c3ccc(N(C)C)cc3)C[C@]21C | ? | >57
O=C(Oc1ccccc1)N1CCC[C@@]2(CCN(c3ccccn3)C2)C1 | -4.4% | >57
O=C(O)c1ccc(COc2cccc(CO)c2)cc1 | -12.2% | >57
COc1ccc(OC)c(NC(=O)C2CC(=O)n3ncnc3N2)c1 (stereo not given) | -4.1% | >57
O=C(CN1CCN(C(=O)c2ccccc2)CC1)Nc1ncc(Br)cc1Br | 5.8% | >57
CN(C)c1ccc(C(C(=O)NC(C)(C)C)N(C(=O)c2csnn2)C2CC2)cc1 (stereo not given) | -13.2% | >57
Nc1nc(N)nc(CCCCc2nc(N)nc(N)n2)n1 | 11.7%[8 µM] | >57
CC(C)OC(=O)CN1C(=O)c2ccccc2C1=O | -4.0% | >57
CCOc1ccc(C(=O)NCCN(C)C)cc1 | -1.1% | >57
O=C(NCCO)c1cc2ccccc2c(=O)s1 | -2.9% | >57
COc1cc(C)c(S(=O)(=O)Nc2ccccc2F)cc1C | -13.6% | >57
CSc1nc(-c2ccco2)nn1C(=O)c1ccc(C)cc1 | ? | >57
O=C(Oc1ccccc1)c1ccccc1O | ? | nt
N#Cc1c(N)c(C(=O)c2ccccc2)n2c1CCCC2 | ? | >57
O=C1CN(C(=O)CSc2nncn2-c2ccccc2)c2ccccc2N1 | 0.0% | >57

# Three entries out of the list, arranged by count of non-hydrogen atoms, descending:
Molecule | LT uptake inh | SmPrx2 inh
CN(C)c1ccc(C(C(=O)NC(C)(C)C)N(C(=O)c2csnn2)C2CC2)cc1 (stereo not given) | -13.2% | >57
COc1cc(C)c(S(=O)(=O)Nc2ccccc2F)cc1C | -13.6% | >57
CCOc1ccc(C(=O)NCCN(C)C)cc1 | -1.1% | >57

# Carrying on:
Molecule | LT uptake inh | SmPrx2 inh
COC(=O)CSc1nnc(CNC(=O)c2cccs2)n1-c1cccc(C)c1 | 2.3% | >57
CCC(C)NC(=O)C1(C)CCC(=O)N1CCc1ccc(OC)c(OC)c1 (stereo not given) | 2.8% | >57
CCCOc1ccc(-c2nc(C#N)c(N3CCN(C)CC3)o2)cc1 | ? | >57
O=S(=O)(NC1CCCC1)c1ccc(S(=O)(=O)N2CCCN(Cc3ccccc3)C2)cc1 | -20.0% | >57
CCc1c(C)nc(N2CCN(Cc3ccccc3)CC2)[nH]c1=O | -10.7% | >57
Cn1c(SCC(=O)Nc2ccc(N3CCOCC3)cc2)nnc1-c1ccccc1 | 12.2% | >57
Cc1ccc2cc(CCNS(=O)(=O)c3ccc(F)cc3)c(=O)[nH]c2c1 | 3.6% | >57
CCOC(=O)N1CCC(NC(=O)c2ccc(OC)c(CN3CC(=O)N4CCCC4C3=O)c2)CC1 (stereo not given) | 2.4% | >57
COc1ccc(CN(C)C2CCCCC2)cc1 | 9.2% | >57
CN1CCN(CN2C(=O)C3C4C=CC(C3C2=O)C2C3C(=O)N(CN5CCN(C)CC5)C(=O)C3C42)CC1 (stereo not given) | -5.7%[8 µM] | >57

# One compound at a time, as listed above. Order of values: LT uptake inh, SmPrx2 inh
# O=S(=O)(NC1CCCC1)c1ccc(S(=O)(=O)N2CCCN(Cc3ccccc3)C2)cc1 in the list: -20.0%, >57
# CCCOc1ccc(-c2nc(C#N)c(N3CCN(C)CC3)o2)cc1 in the list: ?, >57

# Additional entries:
Molecule | LT uptake inh | SmPrx2 inh
Cc1nc(C)c(C(=O)Nc2ccc(C)c(F)c2)o1 | 2.8% | >57
CN(C)CCNCCN | 9.4%[8 µM] | >57
COc1ccc(OCCOCC(O)CN2CCOCC2)cc1 (stereo not given) | -8.9% | >57
CCOCc1nnc(NC(=O)COC)s1 | 11.0% | >57
CCc1ccc(NC(=O)CSc2nnc(Cc3cccn3C)n2-c2ccc(OC)cc2)cc1 | ? | >57
Cc1cc(C)nc(SCCS(=O)(=O)Cc2ccccc2)n1 | -13.0% | nt
CCCCCCCC#Cc1ccccc1/C=N/S(=O)c1ccc(C)cc1 (stereo not given) | -25.2%[8 µM] | nt
CCc1nnc(NC(=O)c2ccc(OC)cc2OC)s1 | 12.1% | nt
O=C(COc1ccc(-c2nnco2)cc1)NC1CCCc2ccccc21 (stereo not given) | -23.1% | >57
CCOCCCNC(=O)c1ccc(CS(=O)(=O)Cc2ccc(C)cc2)o1 | 19.1% | >57
O=C(NC1CC2CCC(C1)N2C(=O)NC1CCCCC1)NC12CC3CC(CC(C3)C1)C2 (stereo not given) | -7.8% | >57
CCCCCCSC1=C(C#N)C(c2ccc(C)o2)CC(=O)N1 (stereo not given) | -5.0% | >57
CCN(CC)S(=O)(=O)c1cccc(C(=O)Nc2nncs2)c1 | -0.2% | >57
C[C@@H]1Cc2cc3c(cc2C(c2ccc(N)cc2)=NN1)OCO3 | ? | >57
CC(=O)N1C(=O)N(C)C2C1N(C(C)=O)C(=O)N2C (stereo not given) | -3.8% | >57
O=C(COC(=O)c1ccccn1)Nc1cc(Cl)ccc1Cl | -13.1% | >57
CN(C)/C=C/C(=O)c1nnn(C2CCCCC2)c1NC1CCCCC1 | -10.5% | nt
Cc1cc(C)n(Cc2ccccc2F)c(=O)c1C#N | ? | >57
CCOC(=O)c1ccc(N2C(=O)CC(N3CC=C(c4ccc(F)cc4)CC3)C2=O)cc1 (stereo not given) | 2.5% | >57
COc1cc2c(cc1OC)C(C(=O)NCC1COc3ccccc3O1)C(c1cccnc1)N(C)C2=O (stereo not given) | 25.2% | >57
CCOC(=O)CN(C(=O)CSc1nnc(-c2ccc(OC)c(OC)c2)o1)c1ccc(F)cc1 | -0.8% | >57
CCS(=O)(=O)N1CCCC(C(=O)NCCN(C)Cc2ccccc2)C1 (stereo not given) | -7.2% | >57
CCC12CN3CC(CC)(CN(C1)C3c1ccccc1Cl)C2O (stereo not given) | ? | >57
CCN(CC)S(=O)(=O)c1ccc2c(c1)c(=O)c(C(=O)N1CCOCC1)cn2C | -10.7% | >57
COc1ccc(CN(C(=O)c2ccco2)c2ccc(C)cc2)cc1OC | 8.2% | >57
O=c1c(F)cn(C2CCCO2)c(=O)n1Cc1ccccc1F (stereo not given) | -8.3% | >57
Nc1nnc(C(=O)c2ccccc2N)s1 | 7.3% | ?
CCOC(=O)CCCNC(=O)CCNC(=O)c1ccc(OC)cc1 | -2.0% | nt
COc1ccc(-c2nc(C#N)c(NCc3ccccc3Cl)o2)cc1OC | nt | >57
CCN1CC2CCCC3(C1)C(=O)NC1(CCCCC1)N=C23 (stereo not given) | 0.8% | >57
CCCSc1nnc(-c2cccc(S(=O)(=O)N(C)C)c2)n1-c1cc(OC)ccc1OC | -18.5% | >57
CCc1cccc(NC(=O)NC2CCCCC2)c1 | -10.4% | >57
O=S(=O)(Cc1ccccc1)N1CCCCCC1 | -0.7% | >57
Cc1nc2ccccc2n1CC(=O)NCc1ccccc1 | 0.3% | >57
O=C(COC(=O)C1=COCCO1)NCCCc1ccccc1 | 4.0% | >57
Cc1cnc(CNc2ncncc2-c2c(C)noc2C)cn1 | -26.8% | >57
Clc1ccc2c(NCCNC3CCCCC3)ccnc2c1 | ? | >57
Cc1ccc(CCN2CC(C(=O)NCCN3CCCCCC3)CC2=O)cc1 (stereo not given) | -3.0% | >57
COc1ccc(-n2c(=O)c(-c3cccs3)nc3cnc(Nc4cccc(OC)c4)nc32)cc1 | ? | >57
CN1C(=O)c2ccccc2C(C(=O)O)C1c1cn(C)c2ccccc12 (stereo not given) | -3.3% | >57

# More structures
# Value order – LT uptake inh, SmPrx2 inh
- O=C(c1csnn1)N1CCC2(CC1)CN(Cc1ccncc1)C2
    -5.3%, >57
- COC(=O)c1cc(OC)c(OC)cc1NC(=O)c1c(-c2ccccc2)noc1C
    ?, >57
- COCCOC(=O)C1=C(C)N(Cc2ccccc2)C(=O)NC1c1cccc(OC)c1OC (stereo not given)
    nt, >57
- CCOc1ccc(C2C(C#N)=C(N)SC(N)=C2C#N)c(OCC)c1
    -1.9%, >57
- COCCNC(=O)C(c1ccco1)N(C(=O)Cn1nnc2ccccc21)c1cc(C)ccc1C (stereo not given)
    10.9%, >57
- O=C(O)CSC1=NCCN1
    7.6%, >57&>57
- CC(C)(C)NC(=O)CSc1nnc(Cc2ccc3c(c2)OCO3)n1C1CCCCC1
    -2.3%, >57
- CCC(=O)Nc1cc(-c2nnc(OC)c3ccccc23)ccc1N1CCOCC1
    ?, >57
- Cc1ccc(S(=O)(=O)N2CCN(C(=O)CSc3nc4ccccc4c(=O)[nH]3)CC2)c(C)c1
    8.4%, >57
- CCNC(=O)NC(=O)C(C)Oc1ccc(C(=O)OC)cc1 (stereo not given)
    -2.9%, >57
- CC1=C(C(=O)OC2CCCC2)C(c2ccc(C)o2)C2=C(CC(c3cccs3)CC2=O)N1 (stereo not given)
    ?, >57
- COC(=O)C1=C(C)NC(C)=C(C(=O)OC)C1C(=O)OCCN1C(=O)c2ccccc2C1=O
    -11.2%, >57
- Cc1cc(NC(=O)Nc2cccc(C(F)(F)F)c2)no1
    -18.0%, >57
- C/C=C/c1ccc(OCCCn2cncn2)c(OC)c1
    2.6%, >57
- CCCC(c1nnnn1Cc1ccco1)N1CCN(C(=O)c2ccco2)CC1 (stereo not given)
    18.5%, >57
- O=C(CCN1C(=O)C2CC=C(Cl)CC2C1=O)NCc1ccco1 (stereo not given)
    1.7%, >57
- Clc1ccc(CSc2ncccn2)cc1
    -25.7%, >57
- Cc1nc(Sc2nnnn2-c2ccccc2)c(C#N)c(C)c1C
    -13.9%, >57
- COC(=O)c1ccc(S(=O)(=O)NCCSc2nnc3c4ccccc4n(C)c3n2)cc1
    -10.7%, >57
- c1ccc(C(Cc2nc(-c3ccccn3)no2)c2ccccc2)cc1
    ?, nt
- COc1ccccc1-c1noc(-c2ccccc2C(=O)Nc2ccccc2)n1
    ?, >57
- C=C(C)c1cccc(C(C)(C)NC(=O)NCCCN2CCCC2=O)c1
    -12.6%, >57
- COc1cccc(OCc2nnc(SCC(=O)OC3CCCCC3)n2C)c1
    15.8%, >57
- Cc1ccccc1NC(=O)CSc1nnnn1C
    6.6%, >57
- O=C(O)c1cc(S(=O)(=O)N2CCCC2)ccc1Br
    -12.9%, nt
- O=C(c1ccc2ccccc2c1)N1CCN(c2ccccc2)CC1
    -25.5%, >57
- O=C(CN(C(=O)CNS(=O)(=O)c1ccccc1)C1CCCC1)NCc1ccco1
    -2.9%, >57
- O=C(O)c1ccc(CNCc2ccccc2)cc1
    2.8%[8 µM], >57
- C=C(C)CN=c1scc(C)n1/N=C/c1ccco1
    -2.1%, >57
- CN(Cc1ccccc1)C(=O)c1ccc2c(c1)OCCO2
    -3.3%, nt
- O=C(CNC(=O)c1cccs1)NCCN1CCN(c2ccccc2F)CC1
    ?, >57

# Bioassay records: PubChem, National Center for Advancing Translational Sciences (NCATS)

# Only part of the results is shown. The share of hits here may be higher or lower than overall.
